Screening data deposited in PubChem by Broad Institute.
DUX4 inh = DUX4-mediated transcription inhibition; AID 1224904; 37,000 tested, 0.8% active; activity change, negative = inhibition, % (concentration not given with the values); 293T-iDUX4 ZSCAN4-Gaussia luciferase reporter, 24 h; stronger effect = lower value;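 active means -10% or lower and over 25 points stronger than a control reporter; inconclusive means -10% or lower with a smaller gap; inactive means above -10%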;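 further: 0% = median of neutral control wells and -100% = median of positive control wells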
DUX4 inh difference = second read-out of DUX4 inh, no call of its own (marks repeat the call); Gaussia minus Italica difference, %; measured here: selective DUX4 reporter inhibition;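 worked out from the two reporters; negative = selective loss of the DUX4 reporter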
DUX4 inh control = further read-out of DUX4 inh, marked with its call; activity change, negative = inhibition, %; measured here: Italica tet-on control reporter;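 0 = neutral control and -100 = positive control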
The depositor's hits bear a star; ? = inconclusive; . = not tested or not shown; & = joins results of further samples. This is a subset; count on the stated rates, not on these rows.

DUX4 inh	DUX4 inh control	DUX4 inh difference	canonical_smiles
-2	-2.0	0	C[C@H](CO)N1C[C@H](C)[C@H](CN(C)C(=O)c2ccccn2)Oc2cc(C3=CCCC3)ccc2S1(=O)=O
-5	-5.2	0	C[C@H](CO)N1C[C@H](C)[C@H](CN(C)C(=O)C2CCC2)Oc2ncc(C#Cc3ccccc3F)cc2C1=O
-3	8.1	-11	CCCNC(=O)N1CC(=O)N2[C@@H](CO)[C@H](c3ccc(-c4ccc(F)cc4)cc3)[C@@H]2C1
4	5.1	-1	CO[C@@H]1CN(C)C(=O)c2cc(NS(=O)(=O)c3ccccc3F)ccc2OC[C@@H](C)NC[C@H]1C
5	0.1	5	COCC(=O)N1CC2(CN(Cc3ccccc3)C2)c2c(n(C)c3cc(OC)ccc23)[C@@H]1CO
-9	-11	2	CCCNC(=O)[C@H]1[C@H](CO)[C@H]2Cn3c(ccc(/C=C/c4ccccc4)c3=O)[C@H]2N1CCC
-1	6.1	-7	O=C(C[C@@H]1CC[C@@H]2[C@H](COC[C@H](O)CN2Cc2cc(F)ccc2F)O1)NCc1ccccc1
2	7.3	-5	C[C@H](CO)N1C[C@H](C)[C@@H](CN(C)C(=O)NC2CCCCC2)OCCCC[C@H](C)Oc2ccc(NC(=O)CCC(F)(F)F)cc2C1=O
1	3.5	-3	CC(C)c1cccc(NC(=O)C[C@H]2CC[C@H]3[C@@H](COc4ccc(NC(=O)c5cnccn5)cc4C(=O)N3C)O2)c1
-1	-0.8	0	COc1ccc(NC(=O)N(C)C[C@H]2Oc3ncc(-c4cccnc4)cc3C(=O)N([C@@H](C)CO)C[C@@H]2C)cc1
9	4.1	4	O=C([C@@H]1[C@@H](CO)[C@@H]2Cn3c(ccc(-c4ccccc4F)c3=O)[C@H]1N2C(=O)C1CCC1)N1CCOCC1
3	2.4	1	CN1C(=O)c2cc(NC(=O)c3ccc(Cl)cc3)ccc2OC[C@@H]2O[C@@H](CC(=O)O)CC[C@H]21
1	3.3	-2	CNC(=O)C[C@@H]1CC[C@@H]2[C@H](COc3ccc(NC(=O)Nc4ccccc4OC)cc3C(=O)N2C)O1
-1	-1.0	0	CCc1cnc(N2[C@H](CO)[C@H](c3ccc(C#CCC4CCCC4)cc3)[C@@H]2C#N)s1
5	-2.5	7	O=C(Nc1ccccc1Cl)N1C[C@@H]2[C@H](c3ccccc31)[C@@H](CO)N2Cc1ccccc1

Full records, quoted from the list:
`COc1ccc(NC(=O)N(C)C[C@H]2Oc3ncc(-c4cccnc4)cc3C(=O)N([C@@H](C)CO)C[C@@H]2C)cc1` is listed as DUX4 inh: -1; DUX4 inh control: -0.8; DUX4 inh difference: 0
`O=C([C@@H]1[C@@H](CO)[C@@H]2Cn3c(ccc(-c4ccccc4F)c3=O)[C@H]1N2C(=O)C1CCC1)N1CCOCC1` is listed as DUX4 inh: 9; DUX4 inh control: 4.1; DUX4 inh difference: 4
`O=C(Nc1ccccc1Cl)N1C[C@@H]2[C@H](c3ccccc31)[C@@H](CO)N2Cc1ccccc1` is listed as DUX4 inh: 5; DUX4 inh control: -2.5; DUX4 inh difference: 7

Remaining list, next part:
DUX4 inh	DUX4 inh control	DUX4 inh difference	canonical_smiles
5	-9.6	14	Cc1cccc(S(=O)(=O)N2CC[C@@H]3[C@H]2c2cc(C#Cc4ccccc4F)ccc2N[C@@H]3CO)c1
12	3.2	9	O=C(C[C@@H]1CC[C@H]2[C@@H](COC[C@@H](O)CN2S(=O)(=O)c2ccc(F)cc2)O1)NCCN1CCCCC1
4	4.4	0	CO[C@H]1CN(C)C(=O)c2ccc(NS(C)(=O)=O)cc2OC[C@@H](C)N(C(=O)CN(C)C)C[C@@H]1C
?	.	.	O=C(Nc1ccccc1)N1CCCCN2[C@H](C1)[C@@H](c1ccc(Br)cc1)[C@@H]2CO
-2	1.6	-4	CC(=O)Nc1ccc2c(c1)C(=O)N(C)[C@H]1CC[C@H](CC(=O)NCc3ccc(Cl)cc3)O[C@@H]1CO2
?	.	.	C[C@H](CO)N1C[C@H](C)[C@H](CN(C)C(=O)Nc2ccc3c(c2)OCO3)OCc2ccccc2-c2c(n(C)c3ccccc23)C1=O
5	3.9	1	COCC(=O)N1CC2(C1)CN(C(=O)NC1CCCC1)[C@@H](CO)c1c2c2ccc(OC)cc2n1C
-2	-0.4	-2	C[C@H]1CN([C@@H](C)CO)C(=O)c2cccc(NS(=O)(=O)c3ccc(F)cc3)c2O[C@H]1CN(C)S(=O)(=O)c1cccs1
-4	3.7	-7	Cc1ccc(-c2ccc([C@H]3[C@@H](CO)N4C(=O)CN(C(=O)c5cccnc5)C[C@@H]34)cc2)cc1
1	0.8	0	O=C(Nc1ccc2c(c1)[C@H]1C[C@@H](CC(=O)N3CCCCC3)O[C@H](CO)[C@H]1O2)C1CCOCC1
-3	1.0	-4	CO[C@H]1CN(C)C(=O)c2cc(NC(C)=O)ccc2OC[C@@H](C)NC[C@@H]1C
-1	-1.9	1	Cc1ccc(S(=O)(=O)Nc2cccc3c2O[C@H](CN(C)C(=O)Nc2ccc(C(F)(F)F)cc2)[C@@H](C)CN([C@@H](C)CO)C3=O)cc1
1	5.8	-5	C[C@H](CO)N1C[C@H](C)[C@H](CN(C)Cc2ccncc2)OCc2ccccc2-c2c(n(C)c3ccccc23)C1=O
-2	-3.8	2	CN(C)C(=O)[C@@H]1[C@@H](CO)[C@@H]2Cn3c(ccc(C4=CCCC4)c3=O)[C@H]1N2S(=O)(=O)c1cn(C)cn1
6	-0.1	6	CN(C)CC(=O)Nc1ccc2c(c1)[C@@H]1C[C@H](CC(=O)NCc3ccncc3)O[C@H](CO)[C@@H]1O2
?	.	.	COCC#Cc1ccc([C@H]2[C@H](CO)N3CCCCN(S(=O)(=O)c4ccc(OC)cc4)C[C@@H]23)cc1
-2	-0.1	-2	O=C(O)[C@H]1[C@H](CO)[C@H]2Cn3c(ccc(C4=CCCCC4)c3=O)[C@H]2N1Cc1ccccc1F
6	6.7	-1	C[C@@H]1CCCCO[C@H](CN(C)C(=O)c2ccncc2)[C@@H](C)CN([C@H](C)CO)C(=O)c2cc(NS(=O)(=O)c3cccs3)ccc2O1
?	.	.	COc1ccc2c3c(n(C)c2c1)[C@@H](CO)N(Cc1ccccc1)CC31CN(S(=O)(=O)c2ccc(C)cc2)C1
19	5.1	14	CN(C)CC#Cc1ccc([C@@H]2[C@@H](CO)N3CCCCN(C(=O)Nc4cc(F)ccc4F)C[C@H]23)cc1
?	.	.	CC(C)NC(=O)N1CC[C@@H]2[C@H]1c1cc(C#Cc3cccnc3)ccc1N(C)[C@@H]2CO
1	1.6	0	CCCNC(=O)C[C@H]1CC[C@H]2[C@@H](COc3ccc(NC(=O)Nc4c(C)noc4C)cc3C(=O)N2C)O1
?	.	.	O=C(CC1CC1)N1[C@H](CO)[C@@H](c2ccccc2)C12CN(Cc1cc(F)ccc1F)C2
0	0.4	-1	CC=Cc1ccc2n(c1=O)C[C@H]1[C@H](CO)[C@@H](C(=O)NCCc3cn(C)cn3)[C@@H]2N1C(=O)CC1CC1 (mixture of isomers)
2	2.7	0	CC(C)NC(=O)N(C)C[C@H]1Oc2ncc(-c3ccccc3F)cc2C(=O)N([C@@H](C)CO)C[C@@H]1C
17	13	4	Cc1ccc(S(=O)(=O)N2CC[C@@H]3[C@H]2c2cc(C4=CCCCC4)ccc2N(C)[C@H]3CO)cc1
5	14	-9	CC(=O)N1CC[C@@H]2[C@@H](CO)Nc3ccc(C#Cc4cccnc4)cc3[C@@H]21
8	4.0	4	CN(C)C(=O)[C@H]1[C@H](CO)[C@H]2Cn3c(ccc(-c4cncnc4)c3=O)[C@H]2N1Cc1cc(F)ccc1F
5	8.9	-4	COc1ccccc1CNC(=O)C[C@@H]1C[C@H]2c3cc(NC(=O)NC4CCCC4)ccc3O[C@H]2[C@H](CO)O1
?	.	.	CCCN1[C@@H]2c3ccc(/C=C/c4ccccc4)c(=O)n3C[C@H]1[C@H](CO)[C@H]2C(=O)NCC1CC1

Laid out differently: 2 of the compounds above
structure | DUX4 inh | DUX4 inh control | DUX4 inh difference
CC=Cc1ccc2n(c1=O)C[C@H]1[C@H](CO)[C@@H](C(=O)NCCc3cn(C)cn3)[C@@H]2N1C(=O)CC1CC1 (mixture of isomers) | 0 | 0.4 | -1
CC(C)NC(=O)N(C)C[C@H]1Oc2ncc(-c3ccccc3F)cc2C(=O)N([C@@H](C)CO)C[C@@H]1C | 2 | 2.7 | 0

Next structures:
DUX4 inh	DUX4 inh control	DUX4 inh difference	canonical_smiles
?	.	.	COc1ccc2c3c(n(C)c2c1)[C@@H](CO)N(C(=O)Nc1cccc(F)c1)CC31CN(Cc2nccs2)C1
7	4.9	2	O=C(O)C[C@H]1C[C@@H]2c3cc(NC(=O)NC4CCCC4)ccc3O[C@@H]2[C@@H](CO)O1
3	-2.1	5	C[C@@H]1CCCCO[C@H](CN(C)C(=O)CCCN(C)C)[C@H](C)CN([C@@H](C)CO)C(=O)c2cc(NC(=O)Nc3ccc4c(c3)OCO4)ccc2O1
-3	0.5	-4	Cc1noc(C)c1S(=O)(=O)Nc1ccc2c(c1)CC(=O)N([C@@H](C)CO)C[C@@H](C)[C@@H](CN(C)C(=O)Nc1cccc3ccccc13)O2
0	-3.5	3	CCN(C[C@H]1N[C@@H](CO)[C@@H]1c1ccc(-c2ccc(F)cc2)cc1)C(=O)COC
-2	-7.4	6	COc1cccc(-c2ccc3n(c2=O)C[C@H]2[C@H](CO)[C@@H](C(=O)N(C)C)N(C(=O)C4CC4)[C@@H]32)c1
-5	2.9	-8	CO[C@@H]1CC[C@H]2CCOc3ccc(C#N)cc3C(=O)N(C)C[C@@H](OC)[C@H](C)C(=O)N(C)C[C@@H]1O2
-3	1.2	-4	C[C@@H]1CN([C@H](C)CO)C(=O)Cc2cc(NC(=O)Nc3ccc4c(c3)OCO4)ccc2O[C@H]1CN(C)S(=O)(=O)c1ccccc1
18	30	-12	CN(C)C(=O)c1ccc(-c2ccc([C@@H]3[C@H]4CN(CCC(F)(F)F)CCCCN4[C@H]3CO)cc2)cc1
0	0.7	-1	CCC(=O)N1[C@@H]2CN(C(=O)Nc3ccc(Cl)cc3)c3ccccc3[C@@H]2[C@@H]1CO
0	2.3	-3	CO[C@H]1CN(C)C(=O)c2ccc(NC(C)=O)cc2OC[C@H](C)N(C(=O)c2ccccc2)C[C@@H]1C
1	-1.7	3	COCC(=O)N1[C@H](CO)[C@H](c2ccccc2)[C@@H]1C#N
1	-1.6	2	COc1ccc(NC(=O)N2CC3(C2)CN(CC2CC2)[C@@H](CO)c2c3c3ccc(OC)cc3n2C)cc1
6	2.5	3	C[C@@H]1CN([C@H](C)CO)C(=O)CCCn2cc(nn2)CO[C@@H]1CN(C)S(=O)(=O)c1cccc(C#N)c1
-2	-4.1	2	O=C(Nc1ccc(Cl)cc1)N[C@@H]1CC[C@@H](CCn2cc(-c3ccccc3F)nn2)O[C@@H]1CO

Brought forward from above: 2 entries, then new ones.
DUX4 inh	DUX4 inh control	DUX4 inh difference	canonical_smiles
6	2.5	3	C[C@@H]1CN([C@H](C)CO)C(=O)CCCn2cc(nn2)CO[C@@H]1CN(C)S(=O)(=O)c1cccc(C#N)c1
-2	-4.1	2	O=C(Nc1ccc(Cl)cc1)N[C@@H]1CC[C@@H](CCn2cc(-c3ccccc3F)nn2)O[C@@H]1CO
11	7.9	3	O=C1CN(Cc2ccc(F)cc2)C[C@@H]2[C@H](c3ccc(-c4ccccc4)cc3)[C@@H](CO)N12
1	3.9	-2	O=C(NCC1CCCCC1)[C@H]1[C@H](CO)[C@H]2Cn3c(cccc3=O)[C@@H]1N2C(=O)c1cccnc1
-19*	7.0*	-26*	O=S(=O)(c1ccccc1)N1CCCCN2[C@H](CO)[C@H](c3ccc(C#CC4CCCC4)cc3)[C@H]2C1
2	0.2	1	COc1cccc(C(=O)Nc2ccc3c(c2)C(=O)N(C)[C@@H]2CC[C@@H](CC(=O)NCc4ccc(F)cc4)O[C@H]2CO3)c1
-2	0.9	-2	O=C([C@@H]1[C@@H](CO)[C@@H]2Cn3c(ccc(-c4ccccc4F)c3=O)[C@H]1N2C(=O)C1CC1)N1CCOCC1
6	2.3	3	CN1c2ccc(-c3cccc(F)c3)cc2[C@H]2[C@H](CCN2C(=O)Cc2ccccc2)[C@H]1CO
2&3	3.4&3.0	-1&0	CO[C@@H]1CN(C)C(=O)c2cc(NC(=O)C3CC3)ccc2OC[C@H](C)N(C(=O)CN2CCOCC2)C[C@@H]1C
1	1.9	-1	O=C(NC[C@H]1N[C@H](CO)[C@@H]1c1ccc(C2=CCCCC2)cc1)c1ccc(F)cc1
3	-1.3	4	CC(C)NC(=O)N(C)C[C@H]1OCCCC[C@@H](C)Oc2ccc(NS(C)(=O)=O)cc2C(=O)N([C@@H](C)CO)C[C@@H]1C
13	9.5	4	COCC(=O)N1CC(=O)N2[C@H](CO)[C@H](c3ccc(-c4cccnc4)cc3)[C@H]2C1
8	5.9	2	COc1ccc(C#Cc2ccc3c(c2)[C@@H]2[C@@H](CCN2C(=O)c2ccccn2)[C@@H](CO)N3)cc1
-1	-1.1	0	CCC(=O)Nc1ccc2c(c1)C(=O)N(C)[C@H]1CC[C@@H](CC(=O)N[C@H](C)c3ccccc3)O[C@@H]1CO2
?	.	.	N#C[C@@H]1[C@@H](c2ccccc2C2=CCCCC2)[C@@H](CO)N1S(=O)(=O)c1ccccc1
0	-0.1	0	C[C@@H]1CCCCO[C@H](CN(C)C(=O)CCCN(C)C)[C@@H](C)CN([C@@H](C)CO)C(=O)c2cc(NC(=O)c3ccccc3)ccc2O1
2	4.7	-3	COc1ccc(CN(C)C[C@H]2OCCCC[C@@H](C)Oc3ccc(NC(=O)C4CCCCC4)cc3C(=O)N([C@H](C)CO)C[C@H]2C)cc1
-32*	-1.7*	-30*	COc1ccc(C#Cc2ccc3c(c2)[C@H]2[C@H](CCN2C(=O)c2ccccc2F)[C@H](CO)N3)cc1
-2	-0.5	-2	CCC(=O)N(C)C[C@H]1[C@@H](c2ccc(-c3cccnc3)cc2)[C@@H](CO)N1C(C)=O
